Vaccinia mCherry: vaccinia inhibition (mCherry reporter). Vaccinia virus mCherry reporter infection, fluorescence; about a quarter of the inactives have no number. Potency, µM (highest dose often 36.5 µM), inactives show at the highest dose activity change, negative = inhibition, hits mostly inhibitors. actives 0.63% (n = 310,000); active = well fitted inhibition curve with a large enough effect; inconclusive = small, poorly fitted or top-dose-only effect; inactive = no such curve, though single readings can be large or run the other way; tested in A549 cells; note: nearly all actives have a fitted effect of over 35% in size; inactives centre near -10
VACV Venus inh: inhibitors of vaccinia virus (Venus reporter); Vaccinia virus Venus reporter expression, fluorescence; Potency, µM (titrated, usually from 36.5 µM), without a hit: top-dose activity change, negative = inhibition, most hits filed as inhibitors; actives 0.46% (n = 330,000); AID 720580; active means well fitted inhibition curve with a large enough effect; inconclusive means small, poorly fitted or top-dose-only effect; inactive means no such curve, though single readings can be large or run the other way; tested in A549 cells; note: nearly all actives have a fitted effect of over 30% in size; inactives centre near -10
Active calls of the source: *; i = inactive; ? = inconclusive; / = no result given; [ ] = another dose, or the depositor's remark. % is set by controls: 0 for no effect and ±100 for the full control effect; potency is the fitted concentration of half-maximal effect. Compounds were not picked by outcome. About 0.86% of those tested had a hit in this group.

mol | Vaccinia mCherry | VACV Venus inh
Cc1ccc2c(C(=O)CN3CCN(C(=O)c4ccco4)CC3)c(C)[nH]c2c1 | -26.0% | -19.1%
O=C(Nc1cccc(NC(=O)c2ccco2)c1)c1ccccc1 | 7.1% | 8.1%
CC(C)(C)C(=O)NNc1nc(-c2ccccc2)c2cc(Br)ccc2n1 | -13.0% | -15.2%
CCOc1cc(NC2CS(=O)(=O)CC2O)c(OCC)cc1NC(=O)c1ccccc1 (stereo not drawn) | i | -12.8%
COc1ccccc1C(NC(=O)C1CCN(CCc2ccc(Br)cc2)CC1)c1ccccn1 (stereo not drawn) | -15.5% | -3.0%
COc1ccc(CNC(=S)Nc2ccccc2C)cc1 | i | -8.2%
COc1ccc(OC(=O)c2cc(S(=O)(=O)N3CCCC3)ccc2Cl)cc1 | -7.8% | -0.5%
N#CCC(N)=C(C#N)C#N | i | -10.9%
CCOCC(=O)Nc1c(C(=O)Nc2ccc3c(c2)OCO3)oc2ccccc12 | -4.9% | -20.1%
CCCC[C@@H]1CC2=C(C(=O)OC(C)(C)O2)[C@@H](c2ccc(F)cc2)O1 | 7.5% | -2.2%
C/C(=N\NC(=S)NCCc1ccccc1)c1ccc(C)cc1 | -12.8% | -12.5%
O=C(COC(=O)c1ccco1)NCc1ccc(Cl)cc1 | -19.5% | -1.3%
O=C(c1ccc2c(c1)OCCO2)N1CCN(c2ccc(C(F)(F)F)cn2)CC1 | -4.5% | -20.9%
COc1ccc(S(=O)(=O)N2CCC(C(=O)N[C@@H](C)C(=O)NCc3ccc(F)cc3)CC2)cc1 | -18.5% | -14.5%
COc1cc(NC(=O)N2c3ccccc3Sc3ccccc32)cc(OC)c1 | -11.1% | -12.9%
CCOc1ccccc1CNC(=O)c1ccc(NC(=O)C2=C(C)OCCS2)cc1 | -16.0%[7.34 µM] | -4.8%[7.34 µM]
COc1cc(CN(CC2CCCO2)C(=O)c2ccccc2F)cc(OC)c1OC (stereo not drawn) | -4.6% | -3.2%
Cc1sc2ncnc(NCCc3ccc(S(N)(=O)=O)cc3)c2c1C | -8.5%[1.46 µM] | ?
Cc1ccc(S(=O)(=O)N2CCN(C(=O)CSc3cc(C)ccc3C)CC2)c(C)c1 | -20.1% | -26.7%
CN1CCN(NC(=O)c2cc(-c3ccc(Cl)s3)nc3ccccc23)CC1 | -1.5% | -5.5%
COC(=O)[C@]12CCCCC=C1N(Cc1ccc3c(c1)OCO3)C(=O)[C@H](CC(=O)NCCCN1CCCC1=O)C2 | -11.5% | 3.4%
Cc1cc(C(=O)NCCc2ccc(Cl)cc2)c2ccccc2n1 | i | -1.2%
CCc1nnc(NC(=O)CN2CCN(Cc3ccccc3Cl)CC2)s1 | -28.8% | -10.6%
COc1cc(OC)cc(C(=O)Nc2ccc(S(=O)(=O)N3CCCCC3c3cccnc3)cc2)c1 (stereo not drawn) | -8.0% | -27.7%
Cc1cccc(C(=O)NNC(=O)Nc2ccccc2)c1 | i | -15.4%
COc1cccc(-c2nnc(SCC(=O)Nc3ccc4c(c3)OCCO4)n2Cc2ccco2)c1 | / | -20.1%
Cc1ccccc1-n1nc(CO)c(C(=O)NCC(c2ccccc2)c2ccccc2)n1 | -12.0% | -23.5%
Cc1cc(=O)n(CC(=O)NCCN2CCOCC2)c2c1c(C)nn2-c1ccccc1 | i | -4.6%
CCN(CC)c1ccc(C(=O)Nc2ccc3nc(N(CC)CC)cc(C)c3c2)cc1 | 7.1% | -10.6%
COc1cccc(NC(=O)[C@@H]2CCCN2S(=O)(=O)c2cccc3cccnc23)c1 | i | -14.1%

The list goes on.
mol | Vaccinia mCherry | VACV Venus inh
COc1ccc(-c2c(-c3ccc(OCC(=O)NN)cc3O)n[nH]c2C(F)(F)F)cc1 | -18.3% | -7.4%
N=c1sc2c(n1Cc1ccccc1)CCCC2 | i | -15.2%
COc1ccc(OC)c(-n2cnnn2)c1 | -7.2% | -4.7%
COc1ccc(C(=O)O)cc1S(=O)(=O)NC(C)(C)C | -21.3% | -8.6%
O=C(NCCS(=O)(=O)NCCCc1ccccc1)c1ccccc1 | -1.8% | -0.3%
CC(C)(C)CC(C)(C)NC1=CC(=O)OC12CCCCC2 | -12.0% | -3.9%
CC(C)N(C(=O)CSc1nnc(CNc2ccc(F)cc2)o1)C(C)C | / | -17.7%
CCCCc1nn2c(=O)cc(COC(=O)c3cccs3)nc2s1 | -0.8% | -1.4%
C=CCCO[C@@H]1O[C@@H](C)[C@H](O)C[C@H]1O | -26.4% | -5.4%
CCCOc1ccc(N2C(=O)CC(N3CCN(c4ccccc4F)CC3)C2=O)cc1 (stereo not drawn) | i | -8.5%
CCCOc1ccc(C(=O)NCC2OCCc3ccccc32)cc1 (stereo not drawn) | 7.6% | 3.3%
N#Cc1c(NC(=O)CSc2ccccn2)oc(-c2ccccc2)c1-c1ccccc1 | / | -21.1%
COc1cccc(-c2cc3c(=O)n(-c4ccccc4)c(=S)[nH]c3s2)c1 | ? | -18.1%
CSc1c(C#N)c(N)nc2sc(C(=O)c3ccccc3)c(N)c12 | -27.4%[7.34 µM] | -6.0%[7.34 µM]
Cc1ccc(S(=O)(=O)NCCC(=O)NNC(=O)c2ccccc2Cl)cc1C | i | -13.0%
CN(C(=O)/C=C/c1cnc2ccccc2c1)C1CCCCC1 | -10.1% | -9.5%
Cc1ccc(S(=O)(=O)C2(C(=O)Nc3cccnc3)CC2)cc1 | -18.4% | -11.1%
COc1ccc([C@H]2C[C@@H](n3cc(COC(=O)c4ccccc4)nn3)[C@H](O)CN2C(=O)c2cccs2)cc1 | -4.3% | -5.4%
COCC(=O)Nc1ccc(N(C)C)cc1 | -1.2% | 1.1%
Cc1cccc(N(CC(=O)NCCSCc2ccco2)S(=O)(=O)c2ccccc2)c1 | ? | -29.6%
O=c1ccncn1C1OC(CO)C(O)C1O (stereo not drawn) | -4.8% | -8.0%
O=C(Cc1noc2ccccc12)NNC(=S)Nc1ccc(Cl)cc1 | -8.5% | 17.3%
COc1ccc(C)cc1NC(=O)c1sc2ncnc(N3CCN(c4ccccn4)CC3)c2c1C | 5.5% | -2.8%
COc1ccc(/C(C)=N/N2CCCCC2)c(O)c1 | i | -13.8%
Cc1ccc(-c2cc(C(=O)Nc3c(C)n(C)n(-c4ccccc4)c3=O)c3ccccc3n2)cc1 | i | -7.2%
CCS(=O)(=O)c1nc(S(=O)(=O)c2ccc(Cl)cc2)c(NCc2ccc(Cl)cc2)s1 | -16.4% | -17.5%
CC(C)(C)n1nnnc1C(c1cc2ccccc2o1)N1CCN(C(=O)OCc2ccccc2)CC1 (stereo not drawn) | -13.8% | -16.0%
CC(C)(C)c1ccc2c(c1)OC(C(=O)N/N=C\c1ccccn1)CO2 (stereo not drawn) | i | -13.9%
O=C(O)c1cccc(Nc2ncnc3sccc23)c1 | -4.5% | -0.9%
Fc1ccc(-c2noc3ncnc(N4CCCCC4)c23)cc1 | 3.3% | -0.5%

Given with each value named: part of the list above
O=C(O)c1cccc(Nc2ncnc3sccc23)c1
  Vaccinia mCherry = -4.5%
  VACV Venus inh = -0.9%
Fc1ccc(-c2noc3ncnc(N4CCCCC4)c23)cc1
  Vaccinia mCherry = 3.3%
  VACV Venus inh = -0.5%

(further entries)
mol | Vaccinia mCherry | VACV Venus inh
COc1ccc(CCNC(=O)CN(c2cc([N+](=O)[O-])ccc2OC)S(C)(=O)=O)cc1OC | -1.3% | -8.3%
C/C(CCC1CC(C)OC1=O)=N\NC(N)=O (stereo not drawn) | -9.8% | -0.7%
NS(=O)(=O)OCCCCCc1ccccc1 | i | -6.7%
COc1ccccc1N(CC(=O)Nc1ccccc1C(=O)N1CCOCC1)S(C)(=O)=O | -19.0% | -6.2%
COc1ccccc1/C=C/C(=O)NCCc1ccccn1 | -6.7% | 18.9%
O=C(Nc1ccc(N2CCCC2)c(Cl)c1)c1cccs1 | -16.2% | -8.4%
Cc1cc(C)c(OCCN(C)C)c(Cl)c1 | -12.0% | -4.3%
O=C(Nc1ccc(Cl)cc1F)c1ccccc1Br | -10.2% | -7.7%
O=C(CSc1cccc[n+]1[O-])c1cc(Cl)ccc1Cl | -15.2% | -3.1%
O=C(Nc1cccc(Br)c1)c1ccc(Cl)c(S(=O)(=O)N2CCOCC2)c1 | ? | ?
O=[N+]([O-])c1c(C(Cl)Cl)nn(-c2ccc(Cl)cc2)c1N1CCCCC1 | ? | ?
Cc1nnc(NS(=O)(=O)c2ccc(F)cc2)s1 | i | -1.2%
Cn1c(=O)c2c(nc3n2CC(CO)O3)n(C)c1=O (stereo not drawn) | -12.0% | -0.3%
CCc1cccc(NC(=O)c2coc(=O)c3ccccc23)c1 | -7.9% | -10.5%
CC1CN(c2snnc2C=C2C(=O)OC(C)(C)OC2=O)CC(C)O1 (stereo not drawn) | i | 2.1%
O=C(c1n[nH]c2c1CCC2)N1CCCC(Nc2cccc(F)c2)C1 (stereo not drawn) | i | -12.3%
Cc1occc1-c1nnc(SCC(=O)N2c3ccccc3CCc3ccccc32)n1C | -13.4% | -7.4%
CC1(C(=O)N/N=C/c2cc3c(cc2Br)OCO3)CC1(Br)Br (stereo not drawn) | -2.7% | -18.8%
Cc1ccc(C(=O)Cn2nnc3ccccc32)cc1C | -17.1% | -10.4%
N#CCCn1[nH]c(-c2ccccc2)cc1=O | i | -3.5%
Cc1cccc(NC(N)=S)c1 | -10.5% | 12.7%
Cc1ccc(C)c(N2CCN(C(=O)c3cc(S(=O)(=O)N4CCCCC4)cn3C)CC2)c1 | i | -16.3%
Cc1ccc(-n2cc(C(=O)Oc3cccc(C)c3)c3ccccc3c2=O)cc1 | -8.7% | -3.9%
Cc1ccc(CNC(=O)c2cccn2-c2nnc(N3CCCCC3)s2)cc1 | -8.6% | -4.2%
O=C1C=CC(=O)C2C1C1(Cl)C(Cl)=C(Cl)C2(Cl)C1(Cl)Cl (stereo not drawn) | ? | ?
CCCN=C1N(CC)C[C@@H]2[C@@H]3C(=O)N(C)C(=O)[C@@H]3[C@](Cc3ccccc3)(C(=O)OC)N12 | i | -8.2%
CCCCN(C)C(=O)c1cn(C)c2ccc(S(=O)(=O)N3CCC(C)CC3)cc2c1=O | 4.3%[7.34 µM] | 7.3%[7.34 µM]
COc1ccc(Nc2nc(N)nc(CSc3nnc(C)s3)n2)cc1 | -13.1% | -2.1%
O=S1(=O)C=C(SCc2ccc(Cl)c(Cl)c2)Nc2ccccc21 | / | ?
CCCCC(=O)Nc1ccc(C(=O)NCCc2ccc(S(N)(=O)=O)cc2)cc1 | -0.9% | -6.2%

Next records follow.
mol | Vaccinia mCherry | VACV Venus inh
COc1cc([N+](=O)[O-])ccc1NC(=O)N1CCN(c2cc(-c3noc(C)n3)ccc2C)CC1 | -10.6% | -11.3%
COc1cccc(C2=CC(=O)CC(C)(C)C2)c1 | -2.7% | -11.4%
CCc1ccc(C2=C(C)C(N3CCC(C(=O)NCc4ccccc4)CC3)=NS2(=O)=O)cc1 | -18.2% | -16.3%
O=C1N/C(=N/N=C/c2ccccc2O)SC1Cc1ccc(F)cc1 (stereo not drawn) | ? | ?
COc1ccc(Nc2nc3ccc(Cl)cc3n3nnnc23)cc1OC | -7.3% | -6.8%
Cc1ccc(S(=O)(=O)n2nc(C)c(C#N)c2N)cc1 | -6.2% | -3.0%
CCOC(=O)C1CCN(C(c2ccccn2)c2c(C)[nH]c3ccccc23)CC1 (stereo not drawn) | / | -14.6%
CCC(CC)C(=O)Nc1cccc(-c2nc3ccccc3s2)c1 | -4.3% | -18.2%
O=C(NNc1ccccc1)C(CCO)C(=O)NNc1ccccc1 | i | -8.1%
O=C(Cc1ccc(Cl)cc1)NO | -22.9% | -11.5%
CN(C(=O)c1cccc(NC(=O)Cc2cccc(NC(=O)C3CCN(C(=O)C4CCC4)CC3)c2)c1)C1CCC1 | i | -22.0%
Cc1ccc(C)c(N2CCN(Cc3nnc(-c4ccccc4)o3)CC2)c1 | -7.4% | -12.4%
CC(C)C1COS(=O)(=O)NC1CC(=O)SC(C)(C)C (stereo not drawn) | -6.7% | -22.8%
Cc1cccc(NC(=O)CSc2nc(C)c(Cc3ccccc3)c(=O)[nH]2)c1C | -6.4% | -3.1%
O=C(CN(Cc1ccccc1)C(=O)c1ccco1)NCc1ccc(F)cc1 | 0.1% | -12.5%
CCOC(=O)c1cc(NC(=O)N(C(C)C)C2CCCCC2)c(C)nc1C | -12.3% | -17.0%
COc1ccc(NC(=O)C(=O)N/N=C/c2cc(C)n(-c3cccc(Cl)c3Cl)c2C)c(OC)c1 | -7.1% | 5.9%
Cc1cc(NC2C3CC4CC(C3)CC2C4)n2nnnc2n1 (stereo not drawn) | -17.7% | -12.2%
Cc1ccc(OC2CCN(C(=O)[C@H]3O[C@@H](n4cnc5c(N)ncnc54)[C@H](O)[C@@H]3O)CC2)cc1 | i | -1.9%
Cc1ccccc1CC1(CO)CCCN(Cc2nc(-c3cccs3)oc2C)C1 (stereo not drawn) | -8.7% | -24.2%

Record cards, as listed above.
`Cc1cccc(NC(=O)CSc2nc(C)c(Cc3ccccc3)c(=O)[nH]2)c1C` in the list: Vaccinia mCherry: -6.4%; VACV Venus inh: -3.1%
`CCOC(=O)c1cc(NC(=O)N(C(C)C)C2CCCCC2)c(C)nc1C` in the list: Vaccinia mCherry: -12.3%; VACV Venus inh: -17.0%

High-throughput results (PubChem BioAssay)
